Source: PubChem BioAssay (National Center for Advancing Translational Sciences (NCATS))
Rango release inh: inhibition of RanGTP-driven Rango-importin beta dissociation. Biochemical FRET Rango-importin beta, RanGTP-induced dissociation. Potency, µM (titrated, usually from 46.1 µM), inactives show at the highest dose activity change, negative = inhibition. 340,000 tested, 0.071% active. AID 540253; active means falling FRET ratio curve, often poorly fitted, with flat reads before Ran was added; inconclusive means other falling curves, or compound fluorescence or quenching; inactive means flat or rising ratio curve;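 note: potency is the fitted concentration of half-maximal effect; % of control where 0% means no effect; nearly all actives have a fitted effect of over 45% in size; -100% = wells without RanGTP and RCC1; the record marks most hits as doubtful in a second field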
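Quantitative HTS using a FRET biosensor: 0.1 uM Rango, 0.25 uM importin beta, 0.6 uM Ran, 2 mM GTP, 0.2 uM RCC1 final, PBS with DTT, Tween-20 and BSA. Post-read taken 45 min after Ran addition.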
GLA inh pH 4.5: inhibitors of human alpha-galactosidase A at pH 4.5. 230,000 tested, under 10 active. P06280. activity change, negative = inhibition, % at 105 µM. purified enzyme, 4-MU-alpha-Gal fluorescence, pH 4.5; inconclusive = small, poorly fitted or top-dose-only inhibition, or a rising curve; inactive = flat fitted curve, though single readings scatter; no compound was filed as active;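 note: 0% = full activity with enzyme and -100% = basal without enzyme; dose as in the result columns while the protocol names 77 µM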
Target sequence (P06280 whole entry, looked up): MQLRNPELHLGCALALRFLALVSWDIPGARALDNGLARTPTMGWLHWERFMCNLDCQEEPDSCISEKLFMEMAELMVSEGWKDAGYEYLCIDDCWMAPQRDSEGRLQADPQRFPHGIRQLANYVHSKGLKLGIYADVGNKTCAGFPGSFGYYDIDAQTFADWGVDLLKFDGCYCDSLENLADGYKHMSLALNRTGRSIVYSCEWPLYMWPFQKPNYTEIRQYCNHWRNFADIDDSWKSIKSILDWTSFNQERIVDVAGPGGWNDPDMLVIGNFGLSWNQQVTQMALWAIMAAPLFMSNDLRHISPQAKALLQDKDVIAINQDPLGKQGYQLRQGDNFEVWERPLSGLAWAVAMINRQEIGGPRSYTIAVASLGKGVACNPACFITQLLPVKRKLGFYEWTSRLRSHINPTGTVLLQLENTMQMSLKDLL
miR-21 reporter: miR-21 reporter, rising signal; Potency, µM (titrated, usually from 38.3 µM), without a hit: at the highest dose reporter change, positive = more light; AID 2288; 340,000 tested, under 10 active; HeLa miR-21 FLuc reporter, luciferase, 48 h; active = well fitted rising curve with a large enough effect; inconclusive = small, poorly fitted or top-dose-only effect; inactive = no such curve, though single readings can be large or run the other way;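 note: % of control where 0% means no effect; miR-21 action dims this reporter so a rising signal means less miR-21 action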
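Compounds were titrated across several concentrations (up to approximately 40 uM) and incubated 48 hours with HeLa miR-21-FLuc reporter cells (miR-21 target sequence downstream of FLuc, endogenous miR-21). Readout was firefly luciferase luminescence after lytic detection reagent.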
Rango complex inh: prevents formation of the Rango-importin beta complex; Q14974; Rango CFP/YFP FRET sensor + importin beta, 45 min; Potency, µM (titrated, usually from 92.2 µM), without a hit: at the top dose inhibition of complex formation; 340,000 tested, 0.031% active; AID 540263; active = rising FRET ratio curve, often small or poorly fitted; inconclusive = mostly compound fluorescence or quenching in the first reads; inactive = flat curves in all reads;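 note: potency is the fitted concentration of half-maximal effect; 0% = DMSO wells and 100% = buffer wells lacking importin beta; nearly all actives have a fitted effect of over 15% in size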
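FRET biosensor (snurportin 1 IBB flanked by EYFP and cerulean), 50 nM, with compound 5 min, then 0.125 microM importin beta in PBS, 1 mM DTT, 0.02% Tween-20, 0.1% BSA. CFP/YFP ratio read after 45 min at room temperature; pre-read flags interference.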
An asterisk follows results filed as active; ? = inconclusive; · = not tested or not shown.

canonical_smiles | Rango release inh | GLA inh pH 4.5 | miR-21 reporter | Rango complex inh
Cc1ccc(C2OC(=O)c3ccccc32)cc1 (centres undefined) | 3% | 9 | -16% | 1.4%
Cn1nnnc1SCC(=O)Nc1cc(S(=O)(=O)N2CCCC2)ccc1Cl | 14% | -12 | 3% | 7.2%
O=C(CSc1nc2ccccc2c(=O)n1-c1ccc(F)cc1F)Nc1ccc(N2CCOCC2)cc1 | 3% | -3 | 3% | 0.1%
CCOc1cc(CN2CCCC(CO)(Cc3ccc(F)cc3F)C2)ccc1OC (centres undefined) | 2% | · | 12% | 3.9%
COC(=O)c1cccc(N2C(=O)c3cccnc3C2=O)c1 | 2% | 9 | 0% | 0.4%
CCCCCCSc1ccc(-c2nc3ccc(C)cn3c2NCc2ccccc2)cc1OC | ? | · | · | ?
Cc1nnc(SCC(=O)N(CC(C)C)c2c(N)n(Cc3ccccc3)c(=O)[nH]c2=O)n1N | 4% | · | · | 1.2%
Cc1ccc(/C=N/NC(=O)c2cc(-c3cccnc3)nc3ccccc23)cc1 | -10% | -2 | 19% | 0.3%
COc1cc(NC(=O)c2cc(-c3cccnc3)nc3ccc(C)cc23)c(OC)cc1Cl | · | -5 | 1% | ·
COCC(C)n1c(C)cc(C(=O)COC(=O)c2cccn2C)c1C (centres undefined) | 21% | · | · | -6.9%
CCc1ccccc1Nc1ccc(C(=O)O)cc1N | -2% | -3 | -33% | ?
O=C(CN(Cc1ccco1)C(=O)Cn1nnc(-c2cccs2)n1)NCC1CCCO1 (centres undefined) | -9% | 10 | -4% | -0.3%
O=C(NCC1CCCO1)c1ccc2ccccc2n1 (centres undefined) | 31% | 0 | -35% | 1.5%
CCN1CCN(CC(=O)c2c(C)n(C)c3ccc(OC)cc23)CC1 | 13% | -4 | -3% | -2.8%
O=C(O)CNC(=O)c1ccc2c(c1)OCCO2 | 2% | 9 | -9% | -2.0%
COc1cccc(/C(O)=C2/C(=O)C(=O)N(CCCN(C)C)C2c2cccc(Cl)c2)c1 (centres undefined) | · | 4 | 3% | ·
CCOCCCN(C(=O)c1snc(C(N)=O)c1N)C(C(=O)NC1CCCC1)c1ccc(O)cc1 (centres undefined) | -14% | · | -5% | ?
Cc1ccccc1-n1c(=O)cc(N2CCc3ccccc32)[nH]c1=O | ? | 8 | -1% | ?
Cc1ccccc1OCC(=O)NNC(=O)c1ccc(-c2ccccc2)cc1 | 22% | 0 | -9% | ?
COc1ccc(S(=O)(=O)NCc2ccncc2)cc1NC(=O)c1ccc(Cl)cc1 | 15% | · | · | -1.7%
O=C(CNS(=O)(=O)c1ccc(Cl)cc1)NNC(=O)c1cccnc1 | -8% | -6 | -1% | -0.2%
CCOc1ccc(NC(=O)C2CCCN(c3nc(C)cc(C)n3)C2)cc1 (centres undefined) | -9% | · | -2% | -3.5%
O=C(CC1C(=O)NCCN1Cc1cccc(Oc2ccccc2)c1)NCCCn1cccn1 (centres undefined) | -14% | 0 | -1% | -2.4%
O=C(N/N=C/c1ccc(-c2ccc(S(=O)(=O)Nc3ncccn3)cc2)o1)c1cc2ccccc2cc1O | -21% | -12 | -8% | ?
CC(C)(C)c1ccc(/C=N/NC(=O)C[n+]2ccccc2)cc1 | -6% | · | -1% | 5.7%

Other records follow.
canonical_smiles | Rango release inh | GLA inh pH 4.5 | miR-21 reporter | Rango complex inh
CC1(C)CC(=O)C(CC2=C(O)CC(C)(C)CC2=O)C(=O)C1 | -7% | 2 | 3% | 0.6%
COc1ccc(CNCCCn2cnc3c(OCc4ccccc4)ncnc32)cc1 | 0% | · | · | 1.7%
COc1ccc2[nH]c(C(=O)Nc3ncc(C)cc3Br)cc2c1 | 14% | -2 | -20% | ?
CN(C(=O)Nc1ccc(Cl)c(Cl)c1)c1ccccc1C(=O)O | -6% | 6 | -19% | 8.9%
CCN(CC)C(=O)COc1ccc(/C=C(\C#N)S(=O)(=O)c2ccccc2)cc1OC | -26% | 0 | -2% | -2.3%
COc1ccc(C)cc1S(=O)(=O)N(CC(=O)NCc1ccco1)c1ccc(C)cc1 | -7% | · | 4% | 0.2%
CC1=NN(c2ccccc2)C(=O)/C1=C/c1cc2cc(C)ccc2nc1N1CCCCC1 | · | -11 | -31% | ·
CCOC(=O)NC1(C(F)(F)F)NC(=O)N(c2ccc(F)cc2)C1=O (centres undefined) | 0% | -14 | 1% | 7.4%
Cc1ccc(-c2nc(=O)[nH]c3ccccc23)cc1 | 0% | · | -15% | 0.3%
Cc1ccccc1OCC(=O)N1CCCCCCC1 | -3% | · | -9% | 2.3%
CCOC(=O)/C=C/C(=O)Nc1cccc([N+](=O)[O-])c1 | 8% | 2 | ? | 0.2%
O=C(Cc1ccccc1)NCC(=O)N1CCN(Cc2cccc(Cl)c2)CC1 | 4% | · | · | 2.7%
O=S(=O)(c1ccc(N2CCCC2c2nc3ccccc3s2)nc1)N1CCOCC1 (centres undefined) | -1% | -1 | -14% | 0.5%
COc1ccc(C2/C=C\CN(Cc3ccc(N(C)C)cc3)CC(=O)N2Cc2ccc(F)cc2)cc1 (centres undefined) | 6% | -26 | -1% | -1.6%
CCOC(=O)C1=C(C)NC(=O)C(C#N)C1c1ccco1 (centres undefined) | -7% | -3 | -9% | 1.8%
C/C(=N\NC(=O)Cc1c(C)[nH][nH]c1=O)c1ccc2ccccc2c1 | · | 6 | -10% | ·
C=CC[C@H](CC(=O)N(CCO)Cc1ccccc1)C(=O)NCCOC(=O)[C@@H](CC=C)Cc1ccc(F)cc1 | 16% | · | · | -1.8%
CCOc1ccc(NC(=O)C2CC(=O)N3CCCN=C3S2)cc1 (centres undefined) | 2% | 1 | -2% | -0.7%
O=C(CCNC(=O)c1ccccc1Cl)NCCCSc1ccccc1 | 8% | · | · | 4.9%
CCc1nnc(NC(=O)CSc2nnc(C(C)NC(=O)c3ccccc3F)n2C)s1 (centres undefined) | 6% | · | 1% | -3.0%
Cc1ccc(C(=O)C(O)C(c2ccc(C)cc2)N2CCCCC2)cc1 (centres undefined) | -1% | -4 | -7% | ?
CC(=O)c1ccc(NC(=O)C2CC2c2ccccc2)cc1 (centres undefined) | 2% | · | · | 2.8%
O=C(Nc1ccc(S(=O)(=O)N2CCCC2)cc1)c1ccc(Cl)nc1 | -16% | · | · | -3.6%
CCC(=O)Nc1c(OC(=O)CC)ccc2c(C)cc(=O)oc12 | ? | ? | -2% | ?
CC1CCN(C(=O)C2CCN(S(=O)(=O)c3cccc4nonc34)CC2)CC1 | -20% | -29 | -2% | ?

The listing continues.
canonical_smiles | Rango release inh | GLA inh pH 4.5 | miR-21 reporter | Rango complex inh
COc1cccc(-c2cc(C(=O)NCC3CCCO3)on2)c1 (centres undefined) | 40% | · | -42% | -2.8%
O=C(CNC(=O)c1ccccc1)NCC(=O)OCC(=O)c1ccc(F)cc1 | -11% | 8 | -13% | -4.4%
C/C(=N\N=C(N)N)c1cc(Cl)ccc1Cl | -11% | 9 | 15% | 0.3%
COC(=O)c1ccc(C(NC(=O)c2cccnc2)NC(=O)c2cccnc2)cc1 | 18% | 3 | 0% | 2.1%
Cc1ccc(C)c(NC(=O)CN(C)C(=O)c2ccc(-c3ccc(Cl)cc3)o2)c1 | 24% | · | · | 0.2%
O=C(Cn1cc(C(=O)c2ccco2)c2ccccc21)NCc1ccco1 | 9% | 4 | -26% | -0.8%
CCOC(=O)N1CCC(n2c(SCC(=O)N3CCC(C)CC3)nc3ccccc3c2=O)CC1 | 0% | -2 | ? | -0.9%
CCOc1ccc(S(=O)(=O)NCc2ccccc2)cc1C(N)=O | ? | 6 | 2% | 5.2%
CCNC(=S)NNC(=O)c1ccc(=O)n(Cc2ccccc2)c1 | 18% | 14 | -3% | -3.0%
Cn1c(=O)c2c(nc(NCc3ccccc3)n2C)n(C)c1=O | -5% | 3 | -2% | 6.2%
CN(C)C(=O)COC(=O)[C@H](Cc1ccccc1)NC(=O)c1ccco1 | -13% | 4 | 0% | -1.0%
COc1ccc(CNC(=O)CCCn2c(SCC#N)nc3cc4c(cc3c2=O)OCO4)cc1 | -11% | 8 | -1% | 1.3%
CC(=O)c1cc(-c2ccccc2)n(CC(=O)NC2CCCC2)c1C | -7% | -2 | 2% | -0.9%
O=C(COC(=O)CSc1cc(Cl)ccc1Cl)NCc1ccc2c(c1)OCO2 | 2% | -7 | -2% | -0.2%
COc1cccc(N=C2SC(C(=O)Nc3ccc(F)cc3)CC(=O)N2C)c1 (centres undefined) | 5% | 0 | 13% | 3.7%
CN1CCN(CCP(=O)(c2ccccc2)c2ccccc2)CC1 | -11% | 8 | -1% | ?
COCCOC(=O)c1c(C)oc2ccc(OC(=O)c3cccs3)cc12 | 0% | -5 | -19% | 2.3%
CCN(C(=O)CN1CCN(C)CC1)c1c(N)n(Cc2ccccc2)c(=O)[nH]c1=O | -2% | · | · | -1.9%
O=C(NNc1ccc([N+](=O)[O-])cc1)C1CC2CCCC(C1)C2=O (centres undefined) | -3% | -24 | 0% | -0.4%
Cc1oc(-c2cccc(Cl)c2)nc1CS(=O)(=O)CC(=O)NC1CC1 | 1% | · | -4% | 1.4%
COc1ccccc1N1CCN(S(=O)(=O)c2cc(C(F)(F)F)cc(C(F)(F)F)c2)CC1 | 16% | -6 | 1% | -8.1%
CC(=C/c1ccccc1)/C=N/N1CCN(Cc2ccc(C)cc2)CC1 | -16% | -6 | -1% | -0.6%
CC(=O)c1nn(-c2cccc(Br)c2)cc1C(=O)c1ccccc1 | -12% | 3 | -5% | 0.0%
C=C(C)C(=O)N1CC2(CC(c3cccc(NC(=O)c4ccccc4)c3)=NO2)C[C@@H]1C(N)=O (some centres undefined) | -6% | 2 | -2% | 2.3%
CCN(Cc1ccc2c(c1)OCO2)C(=O)/C=C/c1cccc(Br)c1 | 7% | · | -15% | 0.8%

Going on with the list.
canonical_smiles | Rango release inh | GLA inh pH 4.5 | miR-21 reporter | Rango complex inh
COc1cccc(/C=N/NC(=O)c2cc3c(OC)c(OC)ccc3[nH]2)c1OC | 0% | -6 | 23% | 0.3%
COC(=O)Nc1ccc(S(=O)(=O)N(CCO)CC(F)(F)C(F)F)cc1 | -2% | -2 | -3% | 0.1%
Cc1cc(O)c(NC(=O)c2ccc(Br)o2)cc1C | -18% | 1 | -47% | 2.1%
CCOc1ccc(Oc2c(C)oc3cc(O)ccc3c2=O)cc1 | -3% | -8 | -18% | 0.8%
C[C@H](NC(=O)c1nc[nH]c1C(=O)NCC(=O)OC(C)(C)C)C(=O)OCc1ccccc1 | 13% | · | 6% | 3.0%
COC(=O)C1=C(C)N(C)C(=O)/C1=C\c1cccs1 | 14% | 2 | 0% | 2.2%
CC(C)(SC(=S)N1CCOCC1)C(=O)O | -6% | -17 | -19% | 2.4%
CSc1ccc(/C=N/n2c(C)cc(C)cc2=O)cc1 | 3% | -5 | -49% | -5.2%
C=CCN1C(=O)CS/C1=N/c1nccs1 | -1% | -8 | -3% | -3.4%
CCOc1ccc(-n2c(-c3ccc(Br)cc3)c[n+]3c2CCCCC3)cc1 | -3% | -6 | ? | -4.5%
COc1ccc(CN2CCN(Cc3ccc(CO)o3)CC2CCO)cc1C (centres undefined) | 13% | · | 2% | -1.0%
Cc1cccc(OCC(=O)NNC(=O)CSc2ncc(C#N)c(N)n2)c1 | 0% | -1 | 0% | ?
CSc1nsc2nc(=O)c(/C=C3\C(C)=Nc4ccccc43)c(N)n12 | ? | 5 | -4% | ?

Profiles, quoted from the list:
`CCOc1ccc(Oc2c(C)oc3cc(O)ccc3c2=O)cc1` reads Rango release inh: -3%; GLA inh pH 4.5: -8; miR-21 reporter: -18%; Rango complex inh: 0.8%
`CSc1ccc(/C=N/n2c(C)cc(C)cc2=O)cc1` reads Rango release inh: 3%; GLA inh pH 4.5: -5; miR-21 reporter: -49%; Rango complex inh: -5.2%

This is a subset; the hit share may differ from the screen's.
